Screening data from PubChem BioAssay.
PK Bst = pyruvate kinase (B. stearothermophilus) modulation | partly purified Bacillus stearothermophilus pyruvate kinase, luminescence ATP production; ribose 5-phosphate activator present at AC10 | Potency, µM | hit rate 1.2% among 51,000 | AID 361; in the data active means potency below about 11 µM; inconclusive means mostly about 12 µM to 25 µM; inactive means weaker than that;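 the screen sought inhibitors and activators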;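 also: potency is read from the fitted curve at half-maximal effect; scaled between full activation by ribose 5 phosphate and full inhibition by luteolin; about four in five hits inhibit and the cells do not say which; series up to 57 µM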
TsaE inh = YjeE (TsaE) inhibition, E. coli | P0AF67 | purified YjeE, fluorescence polarisation of a bound ADP probe | Potency, µM | hit rate 0.05% among 71,000; active = well fitted falling curve; inconclusive = weaker or top-dose-only fall, or a rising curve; inactive = flat or poorly fitted curve;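 also: top concentration of the series not given in the record; excess ADP was the control for the full effect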
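Purified YjeE (10 uM) with BODIPY Texas Red-labeled ADP probe (2 uM); compounds pin-transferred, 15 min at room temperature. Binding inhibition read as decreased fluorescence polarization; ADP titration as control.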
* hit, by the source's call; i = inactive; ? = inconclusive; · = no result given. These rows are one share of the data. The share of hits here may be higher or lower than overall.

SMILES	PK Bst	TsaE inh
COc1ccc(OC)c(N=Cc2c(O)[nH]c3ccccc23)c1	>57	i
CCOC(=O)c1cccc(NC(=O)c2cccs2)c1	·	i
Cc1onc(-c2ccccc2Cl)c1C(=O)OCC(=O)Nc1ccc2c(c1)OCO2	>57	i
CCOC(=O)C1CCc2nc3ccccc3c(=O)n21 (stereo not drawn)	·	i
Cc1ccc(-c2nn3c(C)nnc3s2)cc1NC(=O)c1ccc(OC(C)C)cc1	·	i
COC(=O)c1nnn(Cc2ccccc2)c1N	>57	i
COc1ccc(CCNC(=O)CSc2nc(-c3ccco3)cc(C(F)(F)F)n2)cc1	>57	i
COc1ccc(NC(=O)CSc2nnc(-c3ccc(C)cc3)n2N)cc1	>57	i
O=C1CC(c2cccc(Oc3ccccc3)c2)NC(=O)N1 (stereo not drawn)	>57	i
Brc1ccc2oc3c(N4CCOCC4)ncnc3c2c1	?	i
CC(=O)N1CCc2cc(Br)cc(S(=O)(=O)N3CCCCCC3)c21	>57	i
CCCCc1nc2n[nH]c(N)c2c2c1CCCC2	>25.6	·
C=CCn1c(SCc2nc3ccccc3nc2C)nnc1-c1ccoc1C	>57	i
Nc1ncnc2c1ncn2CCCCC(=O)O	·	i
COCCN1C(=O)c2oc3cc(C)c(C)cc3c(=O)c2C1c1cccc(O)c1 (stereo not drawn)	>57	i

A few values from above:
For PK Bst, COc1ccc(NC(=O)CSc2nnc(-c3ccc(C)cc3)n2N)cc1 has the entry >57
For PK Bst, COc1ccc(CCNC(=O)CSc2nc(-c3ccco3)cc(C(F)(F)F)n2)cc1 has the entry >57
For PK Bst, C=CCn1c(SCc2nc3ccccc3nc2C)nnc1-c1ccoc1C has the entry >57
For PK Bst, COc1ccc(OC)c(N=Cc2c(O)[nH]c3ccccc23)c1 has the entry >57
For PK Bst, COCCN1C(=O)c2oc3cc(C)c(C)cc3c(=O)c2C1c1cccc(O)c1 (stereo not drawn) has the entry >57

Ordered by molar mass (ascending): some entries from above.
SMILES	PK Bst	TsaE inh
CCOC(=O)c1cccc(NC(=O)c2cccs2)c1	·	i
O=C1CC(c2cccc(Oc3ccccc3)c2)NC(=O)N1 (stereo not drawn)	>57	i
COc1ccc(OC)c(N=Cc2c(O)[nH]c3ccccc23)c1	>57	i
COc1ccc(NC(=O)CSc2nnc(-c3ccc(C)cc3)n2N)cc1	>57	i
CC(=O)N1CCc2cc(Br)cc(S(=O)(=O)N3CCCCCC3)c21	>57	i
Cc1ccc(-c2nn3c(C)nnc3s2)cc1NC(=O)c1ccc(OC(C)C)cc1	·	i

Other structures follow.
SMILES	PK Bst	TsaE inh
Cc1csc(NC(=O)C2CCCO2)n1 (stereo not drawn)	>57	i
CS(=O)(=O)Nc1ccccc1C(=O)N1CCCC1	>57	i
Nc1ccccc1C#Cc1ccccc1	·	i
CC(C)(C)c1cc(NC(=O)C2CCCO2)no1 (stereo not drawn)	>57	i
COc1ccc(CNC(=O)c2cc3c(=O)n4ccccc4nc3n(Cc3cccnc3)c2=N)cc1	>57	i
NS(=O)(=O)c1ccc(NCc2cnc3ccccc3c2)cc1	·	i
COc1ccc(Cl)cc1N1C(=O)[C@@H]2C(c3cccc(OC)c3OC)=NO[C@@H]2C1=O	>57	i
O=C(NC1=NCCS1)c1cc2ccccc2o1	·	i
O=C(O)CCCCCN1C(=O)CCC1=O	>25.6	·
Cc1ccc(-c2nn3c(C)nnc3s2)cc1N	>57	i
OC(Cc1nc2ccccc2[nH]1)c1ccccc1Cl (stereo not drawn)	>57	i
O=C(CCCn1c(=S)[nH]c2cc3c(cc2c1=O)OCO3)NC1CC1	>57	i
COc1ccc(NC2=C(C)C(=O)CC2)cc1	·	i
Cc1nc(NC(=O)C2CC3CCCC(C2)C3=O)sc1C (stereo not drawn)	>57	i
CCN(CC)CCN1C(=O)c2oc3ccccc3c(=O)c2C1c1ccccc1 (stereo not drawn)	>57	i
O=C(NCCN1CCOCC1)c1c(F)c(F)c(F)c(F)c1F	>57	i
CC(=O)Nc1cccc(NC(=O)C2CC3CCC2C3)c1 (stereo not drawn)	·	i
CCCC(=O)Nc1ccccc1NC(=O)CCC	>57	i
CCc1ccc2nc(NC3=NCN(CCCN4CCOCC4)CN3)nc(C)c2c1	·	i
O=C(OCC#CCSc1nnc(-c2ccncc2)o1)c1cccs1	>57	i
CCOc1cc(C2/C(=C(/O)c3ccc(OC(C)C)cc3)C(=O)C(=O)N2CCCOC)ccc1O (stereo not drawn)	>57	i
Cc1cc(NC(=O)CC(CN(C)S(=O)(=O)c2ccccc2)c2ccccc2)no1 (stereo not drawn)	·	?
Cc1sc2ccccc2[n+]1CCC(=O)O	·	i
Cc1occc1C(=O)NC(C)CCc1ccccc1 (stereo not drawn)	·	i
O=C(c1cc(C(F)(F)F)cc(C(F)(F)F)c1)N1CCC2(CCN(Cc3ccccc3)CC2)CC1	·	i
COc1ccc(OC)c(C(=O)COC(=O)c2ccc(C)o2)c1	>11.4	i
O=C(O)C1CCN1C1CCCCC1 (stereo not drawn)	>57	i
CCc1cc2c(cc3c(=O)n(CC(=O)N4CCN(c5ccccn5)CC4)nc(CC)n32)s1	>57	i
COc1ccccc1N1CCN(CC(=O)c2ccc3ccn(C(C)=O)c3c2)CC1	·	i
CCOC(=O)c1c(NC(=O)CSc2nnnn2C)sc(C)c1C	>57	i
Cc1ccc(-n2sc3ccccc3c2=O)cc1S(=O)(=O)N1CCCCC1	>11.4	?
CC(=O)c1nc(N2C(=O)C3CC=C(C)CC3C2=O)sc1C (stereo not drawn)	>57	i
O=c1cc(O)c2c(=O)n(-c3ccccc3)c3ccccc3c2o1	·	i
CCCCCOc1ccc(NC(=O)CCCC(=O)O)cc1	·	i
Cc1nc(N2CCN(c3ccccc3)CC2)nc2c1C(=O)CC(c1ccccc1)C2 (stereo not drawn)	>57	i
O=C(CCN1C(=O)c2ccccc2C1=O)Nc1ccncc1	·	i
Cn1c(=O)c2c(nc(CN3CCN(CCO)CC3)n2CCc2ccccc2)n(C)c1=O	·	i
CCOc1ccc(N(CC(=O)Nc2ccccc2C)S(=O)(=O)c2c(C)noc2C)cc1	·	i
O=C(COC(=O)c1ccc(S(=O)(=O)N2CCOCC2)cc1)Nc1nc(-c2ccccc2)cs1	>57	i
Cc1nonc1NC(=O)CSc1nnc(-c2ccoc2C)n1C	>57	i
Cc1ccc(C2C3=C(CC(C)(C)CC3=O)Nc3n[nH]c(C)c32)cc1 (stereo not drawn)	>57	i
CC(=O)N1CCC2(CCCN(c3ccccn3)C2)CC1	·	i
COc1ccc(N=C2SC(C(=O)O)CC(=O)N2Cc2ccc(OC)c(OC)c2)cc1 (stereo not drawn)	>57	i
COc1ncc2nc(-c3cc(F)cc(F)c3)c(=O)n(Cc3cccs3)c2n1	·	i
COCCn1c(=O)c(-c2cn(C)c3ccccc23)nc2cnc(Oc3ccccc3)nc21	·	i
CCOc1cc(OCC)c(C(C)=O)cc1OCC	·	i
O=C(O)C(Cc1ccccc1)Cc1ccccc1	·	i
Cc1ccc(NC(=O)COc2ccc(/C(N)=N/O)cc2)cc1C	>57	i
CC(=O)Nc1ccc(OC(=O)CC2SC(=O)NC2=O)cc1 (stereo not drawn)	>11.4	·
CCC(c1nnnn1Cc1ccccc1)N(Cc1cc2cc(OC)ccc2[nH]c1=O)CC1CCCO1 (stereo not drawn)	>57	i
O=C(Nc1nccs1)NC(C(F)(F)F)C(F)(F)F	>25.6	·
COC(=O)c1ccccc1NC(=O)CSc1nc(NC(=O)c2ccccc2)c2c(C)c(C)oc2n1	>57	i
Cc1cc(NC(=O)CCC(=O)N(CC2CCCO2)C(C(=O)NC2CCCC2)c2ccccc2C)no1 (stereo not drawn)	>57	i
COc1ccccc1N1CCN(CCCCN2C(=O)CCC2=O)CC1	·	i
Cc1cc(C)nc(N2CCC(C(=O)NC3CCCCCC3)CC2)n1	>57	i
O=C(/C(=N/O)c1ccccc1)c1ccccc1	·	i
CSc1ccc(S(=O)(=O)N2CCCC2)cc1	>57	i
O=C(NC1CCCCC1)C(c1ccccc1F)N(Cc1ccco1)C(=O)Cn1nnc2ccccc21 (stereo not drawn)	>57	i
O=C(CCn1c(=S)[nH]c2cc3c(cc2c1=O)OCO3)N1CCN(c2ccccn2)CC1	>57	i
Cn1nnc(NC(=O)c2cccc(OCc3ccccc3)c2)n1	>57	i
(next part)
SMILES	PK Bst	TsaE inh
Cn1nc(C(=O)Nc2c(-c3ccccc3)nc3sccn23)c2ccccc2c1=O	>57	i
O=C(CSc1ncn[nH]1)c1ccccc1	>57	i
O=C1C2CC=CCC2C(=O)N1c1nc2n(n1)C(c1ccccc1)CC(c1ccccc1)N2 (stereo not drawn)	>57	i
Cc1cc(=O)oc2cc(OCC(=O)OCc3nnc(-c4ccccc4)o3)ccc12	>57	i
COC(=O)[C@@]1(Cc2ccc(OC)cc2)[C@H]2c3cc(C(=O)N4CCCC4)n(Cc4ccc(C(F)(F)F)nc4)c3C[C@H]2CN1C(=O)c1ccccc1	·	i
Cc1cc2ncn(-c3nnnn3-c3ccccc3)c2cc1C	>57	i
Cc1sc2nc(SCC(=O)N3CCOCC3)[nH]c(=O)c2c1C	·	i
CCOC(=O)C1=C(CSc2nc3c(cc2C#N)CN(C)CC3)OC(N)=C(C#N)C1c1ccccc1 (stereo not drawn)	>25.6	·
C=CCn1c(SCC(=O)Nc2cccc(OC)c2)nnc1-c1cccnc1	·	i
NC(=O)C1(N2CCCCC2)CCN(C(=O)CCCn2c(=O)[nH]c3ccsc3c2=O)CC1	·	i
COc1ccc2c(C(=O)CN(C)C3CCCCC3)c[nH]c2c1	>57	i
O=C(CN(Cc1ccccc1Cl)C(=O)c1ccc(CN2CCOCC2)o1)NCc1ccccc1	>57	i
Cc1ccc2nc(NCc3ccccc3)[nH]c2c1	i	·
N#CC1=C(N)NC(SCC(=O)Nc2ccccc2)=C(C#N)C12CCCC2	·	i
Cc1ccnc2nc(C(=O)OCCOc3ccccc3)nn12	>57	i

Profiles, looked up by structure:
Cc1ccc2nc(NCc3ccccc3)[nH]c2c1 is listed as PK Bst = i; TsaE inh = ·
Cc1ccnc2nc(C(=O)OCCOc3ccccc3)nn12 is listed as PK Bst = >57; TsaE inh = i

Continued.
SMILES	PK Bst	TsaE inh
Cn1c(=O)n(CCC(=O)O)c2ccccc21	>25.6	·
COc1ccc(CC(=O)Nc2ccc(-c3noc(-c4cc(OC)c(OC)c(OC)c4)n3)cc2)cc1	>57	i
COc1ccc2cnn(CCOc3ccccc3)c(=O)c2c1OC	·	i
COCCn1nnnc1C(C(C)C)N1CCN(C(=O)c2ccco2)CC1 (stereo not drawn)	>57	i
Cc1cc2ncn(C(=O)c3c(-c4ccccc4Cl)noc3C)c2cc1C	·	i
O=C1NC(=O)C(CC(=O)N(Cc2ccco2)C2(C(=O)NC3CCCCC3)CCCCC2)N1 (stereo not drawn)	>57	i
CCOc1ccccc1C1CC(=O)Nc2cc3c(cc21)OCO3 (stereo not drawn)	i	i
CCN1CCN(P2(=O)C=C(c3ccccc3)OC(c3ccccc3)=C2)CC1	>57	i
CCCCC(CC)COC(=O)C(C#N)=C(c1ccccc1)c1ccccc1 (stereo not drawn)	·	i
COc1ccccc1OCC(O)Cn1c(Br)nc2c1c(=O)[nH]c(=O)n2C (stereo not drawn)	>57	i
c1ccc2c(c1)CNc1ccccc1C2	>57	i
Cc1ccc(C)c2[nH]c(=O)c(CCNC(=O)c3cc4ccccc4o3)cc12	·	i
COc1ccc2c(c1)S/C(=C\C(=O)c1ccncc1)N2C	·	i
COc1ccc(-n2c(-c3ccco3)n[nH]c2=S)cc1	·	i
O=C(NC(=Nc1ccccc1)N1CCOCC1)Nc1ccccc1	>57	i
C=CCNC(=O)NC(=O)COC(=O)COc1ccc(Br)cc1F	>57	i
Cc1nnc(SCCN2CCOCC2)n1C	>57	i
O=S(=O)(c1ccccc1Cl)N1CCC(O)(c2ccc3c(c2)OCO3)CC1	i	i
C[C@]12C=CC(=O)C=C1CC[C@@H]1[C@H]3C[C@@H](O)[C@](O)(C(=O)CO)[C@]3(C)C[C@H](O)[C@]12F	·	i
COc1cc(C2c3c(n[nH]c3C)C(=O)N2c2ccc(Br)cc2)ccc1O (stereo not drawn)	>57	i
CC(=O)/C(C(=N)N1CCN(Cc2ccccc2)CC1)=C(\C)O	·	i
CC1CCN(C(=O)Cn2cc3c(n2)CCCC3)CC1	·	i
CCN(CCCNC(=O)CN1C(=O)COc2ccccc21)c1cccc(C)c1	>57	i
COCCNC(=O)CN(C(=O)CCC(=O)Nc1cc(C)on1)c1cccc(C)c1C	>57	i
CCOC(=O)c1cnc(SCC(=O)NCc2ccco2)nc1N	>57	i
O=C(Nc1ccc(Cl)c(Cl)c1)N1CCC(N2CCCCC2)CC1	>57	i
Cc1cc(C)cc(N2CCCn3c2nc2c3c(=O)n(CCN3CCOCC3)c(=O)n2C)c1	>57	i
COc1cc2nc(NC(=O)c3ccc(Cl)cc3)[nH]c(=O)c2cc1OC	>57	i
CCCCC(OC(=O)c1cc2occc2n1C)C(=O)NCC1CCCO1 (stereo not drawn)	>57	i
O=C(NCCN1CCOCC1)c1cc2ccccc2[nH]1	>57	i
Cc1ccc(Cl)cc1N1CCN(C(=O)CCS(=O)(=O)c2cccc3nonc23)CC1	>57	i
CN=C1c2c(-c3ccccc3)c3cc(OC)ccc3n2CCN1C	>25.6	·
CC(=O)N1CN(Cc2ccccn2)Cc2c1sc1c2CCCC1	>57	i
CCCCn1c(SCC(=O)Nc2ccc(OC)cc2)nc2ccc(N3CCOCC3)cc2c1=O	>57	i
CC12CN3CCN(CC(C3)C1(O)CN1CCCCC1)C2 (stereo not drawn)	·	i
O=C(Nc1cccc2ccccc12)c1cnccn1	>57	i
CN(C)Cc1ccccc1-c1nccc(NC2CC2)n1	·	i
CCOc1ccc(NC(=O)CCN2CCCCC2)cc1	>57	i
